Source: PubChem (several laboratories)
VCAM-1 inhibition: inhibitors of TNFa-induced VCAM-1 surface display, cell-based, plate reader, pooled HUVEC, TNFa stimulus (AID 454); actives 0.2% (n = 10,000); HUVEC TNFa-induced VCAM-1 surface immunofluorescence, plate reader; numbers were filed only for top-ranked candidate wells; inhibition, % at 5 µM;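 active = compound among top-ranked inhibitors of TNF-induced VCAM-1 adhesion protein staining, with the hit upheld by image or statistical review; inactive = the rest, including hits rejected on review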;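 also: 0% = TNFa with vehicle and 100% = cells without TNFa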
FPR binder: human FPR ligand, with FPRL1 counter-screen | P21462 | inhibition, %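 (tested at 6.7 µM)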 | FPR-expressing cells, fluorescent ligand binding, flow cytometry | actives 0.74% (n = 24,000);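 also: 0% = buffer wells and 100% = receptor blocker peptide wells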
Target sequence (P21462 whole entry, looked up): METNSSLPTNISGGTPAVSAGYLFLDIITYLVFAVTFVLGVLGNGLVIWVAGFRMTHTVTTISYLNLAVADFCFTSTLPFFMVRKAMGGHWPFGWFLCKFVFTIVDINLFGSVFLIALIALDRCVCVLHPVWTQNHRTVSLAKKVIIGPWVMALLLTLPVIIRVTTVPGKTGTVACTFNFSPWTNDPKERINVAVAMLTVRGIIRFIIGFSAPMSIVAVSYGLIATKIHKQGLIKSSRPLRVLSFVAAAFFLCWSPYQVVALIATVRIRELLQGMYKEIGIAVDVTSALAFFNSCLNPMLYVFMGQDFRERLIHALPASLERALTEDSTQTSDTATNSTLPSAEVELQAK
VCAM-1 augmentation: enhancers of VCAM-1 display on endothelial cells, imaging, high-content imaging, pooled HUVEC, TNFa stimulus (AID 457). Pooled HUVEC, TNFa-induced VCAM-1 immunofluorescence imaging; hits of this screen are not shown here. calls only. actives 0.2% (n = 10,000);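 active = a top-ranked rise in VCAM-1 staining upheld on image or statistical review; inactive = the rest, including candidates rejected on review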;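 also: compounds tested at 5 µM in the well; cells exposed to compound for 24 hours before fixing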
VCAM-1 imaging: inhibitors of TNFa-induced VCAM-1 surface display, imaging, high-content imaging, pooled HUVEC, TNFa stimulus (AID 456). HUVEC TNFa-induced VCAM-1 surface expression, immunofluorescence imaging; numbers were filed only for top-ranked candidate wells. inhibition, % at 5 µM; hits with a dose series show IC50 in µM. actives 0.2% (n = 10,000);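 active = top tenth filtered wells with inhibition above zero that passed visual or statistical confirmation; inactive = the rest, including hits rejected on review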;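 also: 0% = stimulated vehicle wells and 100% = unstimulated cells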
FPRL1 ligand: ligands of human FPRL1, also counter-screen for FPR ligands; inhibition, %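 (tested at 6.7 µM)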; P25090; FPRL1-expressing cells, fluorescent ligand binding inhibition, flow cytometry; actives 0.3% (n = 24,000); AID 441;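 also: 0% = buffer alone and 100% = receptor blocker peptide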
* marks the source's active call; other numbers are inactive results; i = inactive.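 The calls were made as follows, unless noted: active = mean above 30%; inconclusive = self-fluorescent; inactive = the rest.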 This is a subset; the hit share may differ from the screen's.

Codes: A = VCAM-1 inhibition; B = FPR binder; C = VCAM-1 augmentation; D = VCAM-1 imaging; E = FPRL1 ligand
Cc1cccc(C)c1NC(=O)C1CCCCN1C (configuration not stated)
  A: i	B: -2	C: i	D: i	E: -5

CCCCC1C(=O)N(c2ccccc2)N(c2ccccc2)C1=O
  A: i	B: 50*	C: i	D: i	E: 0

Cn1c(=O)c2c(ncn2CCO)n(C)c1=O
  A: i	B: -2	C: i	D: i	E: -2

CC[C@]1(O)C[C@@H]2CN(CCc3c([nH]c4ccccc34)[C@@](C(=O)OC)(c3cc4c(cc3OC)N(C)[C@H]3[C@@](O)(C(=O)OC)[C@H](OC(C)=O)[C@]5(CC)C=CCN6CC[C@]43[C@@H]65)C2)C1
  A: i	B: 9	C: i	D: i	E: 12

CCCCOc1ccc(CC(=O)NO)cc1
  A: i	B: 2	C: i	D: i	E: 1

CN(C)CCOc1ccccc1Cc1ccccc1
  A: i	B: 2	C: i	D: i	E: 5

C[C@@H]1C[C@H]2[C@@H]3C[C@H](F)C4=CC(=O)C=C[C@]4(C)[C@@]3(F)[C@@H](O)C[C@]2(C)[C@@]1(O)C(=O)COC(=O)C(C)(C)C
  A: i	B: -9	C: i	D: i	E: 1

CCn1cc(C(=O)O)c(=O)c2cc(F)c(N3CCNCC3)nc21
  A: i	B: -5	C: i	D: i	E: 1

Pulled by structure from above:
Codes: A = VCAM-1 inhibition; B = FPR binder; C = VCAM-1 augmentation; D = VCAM-1 imaging; E = FPRL1 ligand
CN(C)CCOc1ccccc1Cc1ccccc1
  A: i	B: 2	C: i	D: i	E: 5

Cn1c(=O)c2c(ncn2CCO)n(C)c1=O
  A: i	B: -2	C: i	D: i	E: -2

Gathered by group, the entries above with four or more nitrogen atoms
Codes: A = VCAM-1 inhibition; B = FPR binder; C = VCAM-1 augmentation; D = VCAM-1 imaging; E = FPRL1 ligand
Cn1c(=O)c2c(ncn2CCO)n(C)c1=O
  A: i	B: -2	C: i	D: i	E: -2

CC[C@]1(O)C[C@@H]2CN(CCc3c([nH]c4ccccc34)[C@@](C(=O)OC)(c3cc4c(cc3OC)N(C)[C@H]3[C@@](O)(C(=O)OC)[C@H](OC(C)=O)[C@]5(CC)C=CCN6CC[C@]43[C@@H]65)C2)C1
  A: i	B: 9	C: i	D: i	E: 12

CCn1cc(C(=O)O)c(=O)c2cc(F)c(N3CCNCC3)nc21
  A: i	B: -5	C: i	D: i	E: 1
